# TDP2 absorb: TDP2 (human) inhibition, absorbance primary screen; O95551; recombinant TDP2, T5PNP hydrolysis, p-nitrophenol absorbance 415 nm; inhibition, % at 12.8 µM; actives 0.34% (n = 370,000);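 active = inhibition above the mean of all tested compounds plus 3 SD, set per campaign, cut at about 25% in these data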;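 note: 0% = DMSO with enzyme and 100% = buffer with substrate but no TDP2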
#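 System – recombinant human TDP2 · Amount – 120 nM TDP2 per well · Buffer or medium – Mg2+-containing Tris-HCl buffer, pH 7.5 · Reagent – T5PNP substrate, 5 mM · Dosing – 12.8 µM single point, 1% DMSO · Incubation – 2 h at 37 °C · Measured by – epi absorbance · Read-out basis – percent inhibition · Benchmarks – high control without enzyme, low control DMSO plus TDP2 · Repeats – singlicate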
# SIAE inh: blocks human sialic acid acetylesterase; SIAE FP-Rh probe binding, fluorescence polarization; inhibition, % at 9.66 µM; actives 0.69% (n = 370,000);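 active = inhibition above a cutoff: mean of compounds within the control limits plus 3 SD of those, cut at about 17% in these data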;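 note: 0% = plate median of compound wells and 100% = probe without SIAE protein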
# LEDGF integ inh: blocks HIV-1 LEDGF/p75-dependent DNA integration. actives 0.64% (n = 370,000). AID 743269. inhibition, % at 3.7 µM. TR-FRET IN-LEDGF/p75 DNA integration, Eu/Cy5;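 active = inhibition above the screen-wide mean plus 3 SD, cut at about 13% in these data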;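 note: signal is the Cy5 over europium emission ratio at 671 and 618 nm; 0% = plate median of compound wells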
# PG9 binder: binds the HIV-1 gp120 antibody PG9 | TR-FRET gp120-PG9 antibody binding | inhibition, % at 6.7 µM | actives 0.43% (n = 360,000) | AID 624416; in the data active = inhibition above about 8.5%
# Rev-erbA mod: Rev-erb alpha (human) modulation; P20393; Rev-erbα–FITC-DNA binding, fluorescence polarization, 90 min; activity, % at 10 µM; actives 0.79% (n = 370,000); AID 1259318;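 active = activity above about 14%, limit read from the data; passing the limit was not always enough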;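 note: 0% = DMSO wells with 35 nM protein and 100% = DMSO wells with 750 nM protein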
# PRMT1 FP inh: inhibitors of human PRMT1; Q99873; recombinant PRMT1, activity-based probe fluorescence polarization; inhibition, % at 2.79 µM; actives 1.3% (n = 370,000);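 active = inhibition above about 21% made by adding two undisclosed values, limit read from the data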
# Target sequence (Q99873 whole entry, looked up): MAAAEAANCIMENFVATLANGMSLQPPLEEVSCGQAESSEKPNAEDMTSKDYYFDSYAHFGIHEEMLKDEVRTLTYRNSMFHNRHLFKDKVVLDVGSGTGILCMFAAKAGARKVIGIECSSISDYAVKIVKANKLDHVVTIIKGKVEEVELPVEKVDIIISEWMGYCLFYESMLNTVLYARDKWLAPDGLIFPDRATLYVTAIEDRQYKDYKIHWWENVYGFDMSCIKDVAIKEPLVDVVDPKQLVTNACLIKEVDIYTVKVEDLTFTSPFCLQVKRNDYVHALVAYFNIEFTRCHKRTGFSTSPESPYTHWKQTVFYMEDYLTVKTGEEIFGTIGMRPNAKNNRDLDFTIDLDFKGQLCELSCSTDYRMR
# TCR CD3 inh: blocks the human TCR-CD3 interaction; actives 0.37% (n = 360,000); TAMRA-labeled TCR probe fluorescence, biochemical; inhibition, % at 9.4 µM; in the data active = inhibition above about 19%;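 note: recombinant mutant TCR 2C K166C tagged with TAMRA read by polarization; 0% = receptor in buffer alone and 100% = receptor with positive control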
# ABHD4 inh: inhibitors of mouse ABHD4 | Q8VD66 | purified mABHD4, FP-Rh probe fluorescence polarization | inhibition, % at 8.92 µM | actives 0.54% (n = 370,000) | AID 720543;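 active = inhibition exceeding the mean over every tested compound plus 3 SD, cut at about 30% in these data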;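 note: 0% = plate median of compound wells and 100% = S159A mutant with DMSO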
# Target sequence (Q8VD66 whole entry, looked up): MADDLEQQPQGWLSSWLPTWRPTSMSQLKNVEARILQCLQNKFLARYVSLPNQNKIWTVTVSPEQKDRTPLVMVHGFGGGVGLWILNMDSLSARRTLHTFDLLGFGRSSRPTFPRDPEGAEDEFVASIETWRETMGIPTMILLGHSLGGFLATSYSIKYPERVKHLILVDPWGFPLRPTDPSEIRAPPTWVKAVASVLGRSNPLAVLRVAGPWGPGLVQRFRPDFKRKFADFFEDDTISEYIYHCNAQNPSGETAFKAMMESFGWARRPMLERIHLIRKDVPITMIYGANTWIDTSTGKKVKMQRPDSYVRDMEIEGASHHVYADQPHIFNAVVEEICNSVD
#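 system = mouse ABHD4 enzyme, wild type | medium = HEPES pH 7.0, NaCl, Pluronic buffer | also added = FP-Rh probe | incubation = Enzyme–compound pre-incubation 45 min, then probe 60 min, both 25 °C | technique = fluorescence polarization, excitation 525 nm, emission 598 nm, BODIPY TMR filters | controls = S159A mutant high control, sample median low control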
# rCAG binder: binds r(CAG) RNA repeats | inhibition, % at 3 µM | actives 1.3% (n = 370,000) | r(CAG) RNA repeat, TO-PRO-1 dye displacement fluorescence;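 active = inhibition above the plate cutoff, the mean of all test compounds on that plate plus 3 SD, cut at about 35% in these data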;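 note: 0% = DMSO alone and 100% = 100 µM mitoxantrone as full dye displacement; higher means more dye released from RNA so lower well fluorescence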
# Active calls of the source: *. The list is partial (hit frequency here may not be typical).
# Every second line gives: TDP2 absorb	SIAE inh	LEDGF integ inh	PG9 binder	Rev-erbA mod	PRMT1 FP inh	TCR CD3 inh	ABHD4 inh	rCAG binder
> CC1(OC(=O)CCc2ccccc2)C(=O)C=C2C=C(c3ccc(C#N)cc3)N(CC3CC3)C=C2C1=O (centres undefined)
→ 17	10	2	-0.9	5	5	8	9	11
> CN1CCN(C(=O)C2CC(=O)N(c3ccc(Cl)cc3)C2)CC1 (centres undefined)
→ -6	4	-4	-1.7	0	4	1	4	0
> Cc1ccc([N+](=O)[O-])cc1-c1ccc2cccc(C)c2n1
→ -1	0	2	-1.7	-1	-1	-3	1	-1
> CC(C)NC(=O)NC(=O)CSc1nnc(C(F)(F)F)n1C
→ 6	-2	1	2.1	-4	-4	5	6	-3
> CCn1c(SC(C)C(=O)O)nc2sc3c(c2c1=O)CCC3 (centres undefined)
→ 1	7	11	-2.9	-27	9	15	6	20
> O=C(Oc1ccc2c(=O)c(Oc3ccc4ccccc4c3)coc2c1)c1cccnc1
→ -11	2	3	-1.2	1	0	1	-21	5
> O=C(NC1CCN(C(=O)NCc2ccccc2)CC1)c1ccc(F)cc1
→ 1	-4	2	-1.1	0	3	4	-3	-2
> COc1ccc(OC)c(-n2c(-c3cccc(O)c3)n[nH]c2=S)c1
→ 10	5	-3	1.2	-2	6	-3	-3	3
> COC(=O)C1=NN(C(=O)c2ccc(Cl)cc2)C(O)(c2ccccc2)C1 (centres undefined)
→ -11	1	1	1.6	-1	-3	-1	8	5
> O=C(CCc1ccccc1)Nc1ncc([N+](=O)[O-])s1
→ 0	-2	0	1.3	7	5	-4	-2	2
> Cc1cc(-c2csc(NC(=O)c3ccc(C#N)cc3)n2)c(C)n1Cc1ccco1
→ -4	16	68*	-1.2	-12	37*	8	-4	59*
> COC(=O)c1ccc(COc2ccc(/C=N/O)cc2OC)o1
→ 13	-2	1	0.5	0	0	-7	1	2
> CCCN1CCN(C(=O)CCCNC(=O)Cn2cnc3sc(C)c(C)c3c2=O)CC1
→ 15	7	2	0.1	1	-1	11	6	-9
> CSCCC(NS(=O)(=O)c1ccc(Br)cc1)C(=O)OCC(=O)NC1CC1 (centres undefined)
→ 8	4	-3	-1.2	3	-3	4	-1	-3
> CN(Cc1nc2ccc(F)cc2[nH]1)Cc1c(C(=O)N(C)C)nc2ccc(Cl)cn12
→ 7	-1	1	-1.1	-2	2	3	2	-4
> COc1ccc(C2/C(=C(/O)c3ccccc3)C(=O)C(=O)N2C)cc1OC (centres undefined)
→ -6	3	-4	-0.8	-3	5	-3	-1	-4
> Cc1cccc(NC(=O)NNC(=O)c2cc3ccccc3cc2O)c1C
→ 1	3	-2	-1.0	-5	1	24*	6	30
> C=CCSc1n[nH]c(-c2ccc(OC)cc2)n1
→ 5	2	6	-4.5	-3	0	0	-1	-1
> CC(C)(C)OC(=O)[C@H](Cc1ccccc1)NC(=O)c1nc[nH]c1C(=O)NC1CCNCC1
→ 8	0	0	-1.6	3	1	-1	2	3
> O=C(CCN1C(=O)S/C(=C/c2ccccc2)C1=O)Nc1ccc(O)c(C(=O)O)c1
→ -9	1	-7	-1.4	1	12	1	1	56*
> CCOC(=O)c1ccc(Oc2coc3cc(O)ccc3c2=O)cc1
→ 7	1	2	-1.2	-2	-3	3	4	2
> O=C(NCc1ccc(F)cc1)C1CCN(C(=O)NCc2ccccc2)CC1
→ -2	2	1	-0.9	7	-1	-2	0	-3
> COc1ccc(OCC(=O)NC(=S)NNC(=O)COc2ccc(Br)cc2Cl)cc1
→ 2	-3	-1	1.0	-3	12	-3	-6	6
> Fc1ccc(NC(=S)NN=C2CCCCCC2)cc1
→ 4	6	0	-1.4	0	5	2	4	-2
> CC(=O)Nc1ccc(C=NNC(=O)c2ccc(NS(=O)(=O)c3cccs3)cc2)cc1
→ 7	-1	3	-2.6	-2	-3	5	-16	12
> Cc1nn(Cc2ccccc2Cl)c(C)c1NC(=O)C1C2CCC(O2)C1C(=O)O (centres undefined)
→ 6	3	1	1.5	0	5	-6	1	-5
> Cc1[nH]c(=O)[nH]c(=O)c1S(=O)(=O)NCCOC12CC3CC(CC(C3)C1)C2
→ 8	7	-2	-1.2	-6	-1	-1	-2	2
> CCOc1ccc(N2C(=O)C3CCCN3C2=S)cc1 (centres undefined)
→ 2	-14	3	0.2	4	6	10	0	2
> CCCCC1=CC2=CC(=O)C(C)(OC(=O)CC)C(=O)C2=CN1CCc1ccccn1 (centres undefined)
→ 15	4	2	-1.1	1	5	3	3	5
> Cc1cccc(C)c1N1C(=O)CC(N(O)c2ccccc2)C1=O (centres undefined)
→ -16	-1	4	-1.7	-2	9	-11	-8	5
> O=C1C2CCCN2C(=S)N1c1ccc(Cl)cc1 (centres undefined)
→ -5	-24	-2	-0.8	4	12	27*	7	6
> CCOC(=O)N1CCC(NCCNC(=O)c2ccco2)CC1
→ 5	6	4	-0.9	-5	5	-5	15	-2
> CC(C)CNC(=O)CC(=O)NN=C1CCCC1
→ -6	2	-8	1.2	4	2	-6	5	-4
> C=CCN(c1ccccc1)S(=O)(=O)c1cc2c(cc1C)NC(=O)CO2
→ 2	4	-2	0.2	6	1	4	-5	2
> Cc1ccc(-c2nn3cnnc3c3ccccc23)cc1C
→ -4	-5	6	0.5	5	0	-2	-13	-5
> Cc1ccc(N)cc1S(=O)(=O)N(C)C
→ 1	2	-7	-0.2	1	1	-5	5	5
> c1ccc(-c2nccc(-c3ccc(-n4cnc5ccccc54)cc3)n2)nc1
→ -13	3	-4	-0.5	2	7	-2	-10	0
> CCOc1ccc(NC(=O)NNC(=O)c2cc3ccccc3cc2O)cc1
→ -18	6	-2	0.1	6	3	11	5	10
> CN1CCN(CC(C)(C)NS(=O)(=O)c2ccccc2)CC1
→ -2	2	3	-1.1	-1	1	-1	1	-2
> CCn1c(NC(=O)Nc2cccc(C)c2C)cc2sccc21
→ -4	7	6	-1.3	-1	9	3	14	25

# Part of the list above, reformatted.
CCOC(=O)c1ccc(Oc2coc3cc(O)ccc3c2=O)cc1
- TDP2 absorb = 7
- SIAE inh = 1
- LEDGF integ inh = 2
- PG9 binder = -1.2
- Rev-erbA mod = -2
- PRMT1 FP inh = -3
- TCR CD3 inh = 3
- ABHD4 inh = 4
- rCAG binder = 2
Cc1ccc(-c2nn3cnnc3c3ccccc23)cc1C
- TDP2 absorb = -4
- SIAE inh = -5
- LEDGF integ inh = 6
- PG9 binder = 0.5
- Rev-erbA mod = 5
- PRMT1 FP inh = 0
- TCR CD3 inh = -2
- ABHD4 inh = -13
- rCAG binder = -5

# Single values from above:
# `Cc1nn(Cc2ccccc2Cl)c(C)c1NC(=O)C1C2CCC(O2)C1C(=O)O` (centres undefined) @ rCAG binder = -5
# `CSCCC(NS(=O)(=O)c1ccc(Br)cc1)C(=O)OCC(=O)NC1CC1` (centres undefined) @ TCR CD3 inh = 4
# `CCOC(=O)c1ccc(Oc2coc3cc(O)ccc3c2=O)cc1` @ SIAE inh = 1
# `CC(C)(C)OC(=O)[C@H](Cc1ccccc1)NC(=O)c1nc[nH]c1C(=O)NC1CCNCC1` @ TCR CD3 inh = -1
# `Cc1[nH]c(=O)[nH]c(=O)c1S(=O)(=O)NCCOC12CC3CC(CC(C3)C1)C2` @ PRMT1 FP inh = -1
# `CC1(OC(=O)CCc2ccccc2)C(=O)C=C2C=C(c3ccc(C#N)cc3)N(CC3CC3)C=C2C1=O` (centres undefined) @ Rev-erbA mod = 5
# `COc1ccc(OCC(=O)NC(=S)NNC(=O)COc2ccc(Br)cc2Cl)cc1` @ ABHD4 inh = -6

# Later entries.
mol	TDP2 absorb	SIAE inh	LEDGF integ inh	PG9 binder	Rev-erbA mod	PRMT1 FP inh	TCR CD3 inh	ABHD4 inh	rCAG binder
Cc1c(Cl)cnc(NC(=O)COC(=O)c2ccc([N+](=O)[O-])s2)c1Cl	37*	3	2	-6.1	-6	11	8	16	21
O=C(O)c1nn2cc(CCO)cnc2c1Cl	4	0	-2	-0.7	-8	2	4	5	7
C=CCn1c(NCCO)nc2sc3c(c2c1=O)CCC3	-3	-5	0	-0.1	-6	33*	-2	8	6
COc1ccc(OCC(=O)NNC(=S)NC(=O)c2ccc(Br)o2)cc1	-1	3	-3	-2.2	1	2	18	9	4
COc1cnc(-c2ccccn2)nc1Sc1ccccc1Cl	-8	7	10	-1.4	-1	-4	1	1	2
Cc1ccc2nc3c(nc2c1)-c1ccccc1C3=O	6	-7	1	-1.8	3	-3	0	5	2
CCC1CCCCN1CC(C)(C)NS(=O)(=O)c1ccccc1 (centres undefined)	18	1	-1	0.4	-3	0	2	6	-4
Cc1nc2sc(C(N)=O)c(N)c2c(C)c1CC(=O)c1ccccc1	4	2	-6	-1.0	-3	9	-8	2	4
COc1ccc(/C=C2/Sc3ccc(C(=O)NCCN4CCCCCC4)cc3NC2=O)cc1	-7	-7	-5	-1.9	-11	-1	-5	19	24
N#Cc1ccc(/C=N/NC(=O)c2cc(-c3cccs3)nc3ccccc23)cc1	14	-27	2	-0.4	0	-4	-5	-34	12
Cc1ccc(S(=O)(=O)N(C)C)cc1N	0	0	-2	-0.8	-5	0	-4	2	-2
CCCCCCN1CC(=O)N2[C@@H](Cc3c([nH]c4ccccc34)C2(C)C)C1=O	-15	3	-1	-2.8	-1	-1	-3	0	1
COc1ccc2oc(-c3ccccc3)c(C(=O)N3CCOCC3)c2c1	-4	3	2	1.2	2	-1	-2	1	-5
CC(=O)Nc1ccc(NC(=O)CN(C)CCC#N)cc1	-3	-5	-2	0.1	1	1	-1	0	3
O=C(NNC(=O)c1ccccc1O)c1cccc(Br)c1	-7	1	-7	-1.3	0	3	35*	18	1
COc1ccc(Oc2coc3cc(OC(=O)c4cncc(Br)c4)ccc3c2=O)cc1	6	-3	4	-1.1	0	-3	-3	1	1
CC(=O)Nc1ccc(NC(=O)CNC(=O)c2cccc(C)c2)cc1	-3	5	4	-0.3	3	1	-5	3	2
N#CC(CCc1ccc([N+](=O)[O-])cc1)(CCc1ccc([N+](=O)[O-])cc1)C(N)=O	1	0	3	-2.8	2	9	10	6	3
O=C(CN1C(=O)S/C(=C\c2ccc(O)cc2)C1=O)c1ccccc1	-14	-2	-1	-1.9	-1	1	9	-15	14
Nc1ccccc1Nc1cc(-c2cccc(Cl)c2)nn1-c1ccccc1	-1	7	1	-4.3	5	3	-1	12	7
COC(=O)c1cc(C)c(C)cc1NC1OC(CO)C(O)C1O (centres undefined)	-3	4	-6	0.0	2	10	-10	0	7
CC1(c2ccccc2)CC(C)(C)N(C(=O)CSc2nnc(N)s2)c2ccccc21 (centres undefined)	2	4	2	0.2	-1	-2	-7	-4	-3

# Bioassay records deposited in PubChem by several laboratories.
